Mtb growth: Mycobacterium tuberculosis H37Rv growth inhibition, cell based, confirmatory dose response (AID 1949) | 100,000 compounds, 1.6% hits | most inactive calls were filed without a number and no value below 0 was filed | inhibition, % at 10 µg/mL; hits with a dose series show IC50 in µg/mL;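 active = confirmed in a dose series; inconclusive = about 50% or more but not retested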;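 note: bacteria grown 7 days with compound before Alamar blue readout; 0% = untreated bacteria and 100% = reference antibiotic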
* hit, by the source's call; i = inactive; ? = inconclusive.

The first five entries (preview)
SMILES | Mtb growth
CN1C2=C(C(=O)CC(C)(C)C2)C(c2cccc(O)c2)C2=C1CC(C)(C)CC2=O | i
O=C(NCc1ccccn1)c1ccc(Cl)cc1Cl | 1%
O=c1c2ccccc2ncn1-c1ccccc1 | i
Cc1cc(NC(=O)c2cnn3cccnc23)n(-c2ccccc2)n1 | i
O=C(CC1(O)C(=O)Nc2ccc(Cl)cc21)c1cccs1 (stereo not given) | i

This part in full, previewed entries included:
SMILES | Mtb growth
CN1C2=C(C(=O)CC(C)(C)C2)C(c2cccc(O)c2)C2=C1CC(C)(C)CC2=O | i
O=C(NCc1ccccn1)c1ccc(Cl)cc1Cl | 1%
O=c1c2ccccc2ncn1-c1ccccc1 | i
Cc1cc(NC(=O)c2cnn3cccnc23)n(-c2ccccc2)n1 | i
O=C(CC1(O)C(=O)Nc2ccc(Cl)cc21)c1cccs1 (stereo not given) | i
CCCCNS(=O)(=O)c1ccc(NC(=O)CCc2ccccc2)cc1 | 1%
O=C(CN(Cc1ccc(Cl)c(Cl)c1)S(=O)(=O)c1ccc(Cl)cc1)NCc1ccco1 | i
Cc1cc(C(=O)Nc2sc3c(c2C(N)=O)CCCCC3)c(C)o1 | 1%
O=C(Nc1ccc(F)c(Cl)c1)C(c1ccccc1)c1ccccc1 | i
COc1cc(-c2cc(-c3ccccc3)nc3sc(C(=O)O)c(N)c23)cc(OC)c1OC | i
Cc1cc(C)cc(N(CC(=O)Nc2cc(Cl)ccc2C)S(C)(=O)=O)c1 | i
O=C(c1ccc(NC(=O)C2(c3ccccc3)CCCC2)cc1)N1CCCCC1 | 1.2µg/mL*

Fetched one by one from the entries so far, two records:
SMILES | Mtb growth
O=c1c2ccccc2ncn1-c1ccccc1 | i
O=C(c1ccc(NC(=O)C2(c3ccccc3)CCCC2)cc1)N1CCCCC1 | 1.2µg/mL*

(continued)
SMILES | Mtb growth
CC1(C)CC(=O)c2c(O)cc(O)cc2O1 | i
CC(=O)N1CCc2nc(SCC(=O)Nc3cccc(C#N)c3)c(C#N)c(C(F)(F)F)c2C1 | 1%
Cc1ccc(OCCOCCN2CCCC2)c(Br)c1 | 7%
COc1ccc(NC(=O)C(=O)NCC2CCCO2)cc1OC (stereo not given) | i
CCOC(=O)c1c(NC(=O)c2ccc(C)c(C)c2)sc(C)c1C | i
CCOCCCNC(=O)c1ccc(C(C)(C)C)cc1 | i
COc1ccc(OCc2nc(N)nc(Nc3ccc(C)cc3)n2)cc1 | i
Cc1cc(C(=O)O/N=C(\N)c2ccc(Br)cc2)ccc1[N+](=O)[O-] | i
Cc1ccccc1OCC(=O)OCc1cccc([N+](=O)[O-])c1 | 2%
COc1ccc(C(=O)O)cc1NC(=S)NC(=O)c1ccc(-c2ccccc2)cc1 | i
Cc1ccc(SCCC(=O)Nc2cc(Cl)ccc2Cl)cc1 | i
COC(=O)Cc1ccc(NC(=S)NCCSc2ccc(C)cc2)cc1 | i
OC(COCC1COc2ccccc2O1)CN1CCc2ccccc2C1 (stereo not given) | i
Cc1sc2nc3c4ccccc4c(NC4CCCCC4)nn3c(=O)c2c1C | 1%
CCN1CCN(C(=S)c2ccc(OCc3ccc(C)cc3)c(OC)c2)CC1 | i
O=C(NCCc1ccccc1)c1nc2ncccn2n1 | i
COc1ccc(C2CC(=O)c3cnc(NCCCOC(C)C)nc3C2)cc1 (stereo not given) | ?
O=C(NCCc1cccc(Cl)c1)c1cccc2ccccc12 | i
Cc1ccc(NC(=O)c2ccc(Cl)c(Cl)c2)c(Br)c1 | i
CCOC(=O)Nc1ccc2c(c1)ncn2C1CCCCC1 | i
Fc1ccc(N(Cc2nc3ccccc3[nH]2)Cc2nc3ccccc3[nH]2)cc1 | 40%
CC(Oc1ccccc1)C(=O)N(CC#N)CC#N (stereo not given) | i
O=C(CN1C(=O)c2cccc3cccc1c23)Nc1ccc(I)cc1 | i
S=C(Nc1ccccn1)Nc1ccccc1Cl | i
COC(=O)C1=C(C)OC(=O)C1(NC(=O)c1ccc(Cl)cc1Cl)C(F)(F)F (stereo not given) | i
COc1ccccc1NC(=O)Cn1c(-c2nonc2N)nc2ccccc21 | i
Cc1cc(C)cc(OCC(=O)Nc2ccc3c(c2)OCCO3)c1 | i
CCOc1ccc(NC(=O)C2CCN(C(=O)c3ccc(C(C)(C)C)cc3)CC2)cc1 | i
CCC(c1ccccc1)c1nnc(NC(=O)C2CCCCC2)s1 (stereo not given) | i
COC(=O)c1ccc(CNC(=S)Nc2ccccc2)cc1 | i
COc1cccc(N(CC(=O)NCCSc2ccccc2)S(C)(=O)=O)c1 | 1%
CCC(C)c1ccccc1OCCCCNCCOC (stereo not given) | 3%
O=S(=O)(NC12CC3CC(CC(C3)C1)C2)c1ccc(NC(=S)Nc2ccc(F)c(Cl)c2)cc1 | 34%
COc1ccc(OC2C(=O)N(CCc3ccc(OC)c(OC)c3)C2c2cccc(F)c2)cc1 (stereo not given) | 3%
CC(=O)Oc1ccc2c(=O)c(-c3cc4ccccc4o3)coc2c1 | i
C#CCOc1ccc(C(Nc2ccccn2)c2ccc3cccnc3c2O)cc1 (stereo not given) | i
O=C(Nc1ccc(SC(F)F)cc1)C1=NCCN1 | i
O=C(NS(=O)(=O)c1ccc(NC(=O)C2COc3ccccc3O2)cc1)c1ccccc1 (stereo not given) | i
CCCC(NS(=O)(=O)c1ccc(C)cc1)C(=O)Oc1cc2oc(=O)c3c(c2cc1Cl)CCC3 (stereo not given) | i
Cn1c(Cc2csc(N)n2)nnc1SCC(=O)NC1CCCCC1 | i
CCOC(=O)c1ccc(NC(=O)COc2ccc(CNCCO)cc2OCC)cc1 | i
Cc1ccc(Cl)cc1N1CCN(C(=O)C2CCN(C(=O)c3ccc(C(C)(C)C)cc3)CC2)CC1 | 3.4µg/mL*
COc1ccc(C(=O)c2ccccc2)c(OCC(=O)NC2CC2)c1 | i
COc1ccc(Cl)cc1S(=O)(=O)NCc1ccco1 | i
Cc1ccc(NC(=O)c2ccccc2I)cc1C | i
O=C(CC(NCCc1ccccc1)C(=O)O)Nc1ccc(O)cc1 (stereo not given) | i
CCOC(=O)c1sc(C)c2c(=O)[nH]c(-c3ccccc3)nc12 | i
COc1ccc(C)cc1NC(=S)NN1CCOCC1 | i

Reformatted field by field: 4 of the compounds above.
CCOC(=O)c1ccc(NC(=O)COc2ccc(CNCCO)cc2OCC)cc1
  Mtb growth: i

Cc1ccc(Cl)cc1N1CCN(C(=O)C2CCN(C(=O)c3ccc(C(C)(C)C)cc3)CC2)CC1
  Mtb growth: 3.4µg/mL*

COc1ccc(C(=O)c2ccccc2)c(OCC(=O)NC2CC2)c1
  Mtb growth: i

COc1ccc(Cl)cc1S(=O)(=O)NCc1ccco1
  Mtb growth: i

Next part:
SMILES | Mtb growth
CN1CCc2c(n(CC(O)CNCC3CCCO3)c3ccccc23)C1=O (stereo not given) | i
Cc1ccc(C)c(-c2nc(-c3ccccn3)no2)c1 | i
CCC(C)c1ccccc1OCC(=O)Nc1sc2c(c1C(N)=O)CCCC2 (stereo not given) | i
CCCCC(=O)N(CC)c1ccccc1C | 6%
CS(=O)(=O)N(CC(N)=O)c1ccc(I)cc1 | i
CCCCC(=O)Nc1ccc(C(=O)NNC(=O)c2ccccc2I)cc1 | i
COC(=O)c1cc(OC)c(OC)cc1NC(=O)Nc1cccc(Cl)c1Cl | i
CN(c1ccccc1C(=O)Nc1cc(Cl)ccc1Oc1ccccc1)S(=O)(=O)c1ccccc1 | i
CCOCCCNC(=O)c1c(-c2c(Cl)cccc2Cl)noc1C | i
CC(C)CCNC(CC(=O)Nc1ccc(Oc2ccccc2)cc1)C(=O)O (stereo not given) | i
CC1(C)CC(=O)c2sc(NC(=O)Cc3ccccc3)nc2C1 | i
OC(CNCc1ccc(Cl)c(Cl)c1)c1ccccc1 (stereo not given) | 9%
COc1cc(NC(=O)c2cnn3c(C(F)F)cc(-c4ccc(C)cc4)nc23)c(C(C)=O)cc1OC | i
Cc1ccccc1C(=O)NC(=S)Nc1ccc(N2CCN(c3c(F)c(F)c(F)c(F)c3F)CC2)cc1 | i
COC(=O)Nc1sc2c(c1C(=O)OC)CCC2 | i
Cc1ccc(-c2cc(C(F)F)n3ncc(C(=O)NCc4c(C)nn(C)c4C)c3n2)cc1 | i
O=C(c1ccc(F)cc1)N1CCN(C(=O)c2cccc3ccccc23)CC1 | 1%
COC(=O)c1ccc(NC(=O)CSc2nnc(-c3ccc(C)cc3)n2C)cc1 | i
Cc1nn(-c2nc3ccccc3[nH]2)c(N)c1-c1ccccc1 | 0.43µg/mL*
O=C(CN1C(=O)COc2ccccc21)Nc1cccnc1 | 3%
COC(=O)c1ccccc1NC(=O)N1c2ccccc2CC1C (stereo not given) | 0%
O=C(Cc1cccc2ccccc12)Nc1ccc(Nc2ccccc2)cc1 | 11%
O=C(CN1CCN(c2ccccn2)CC1)N1N=CCC1c1ccccc1 (stereo not given) | i
Cn1nc(-c2ccc(Cl)cc2)nc2c(=O)n(C)c(=O)nc1-2 | ?
COc1ccc(C2(C(=O)Nc3ccc(S(N)(=O)=O)cc3)CCCC2)cc1 | i
Cc1onc(-c2ccccc2Cl)c1C(=O)NCc1ccc(Cl)c(Cl)c1 | i
Cc1cccnc1NC(=O)C1CC(=O)N(c2ccc(Br)cc2)C1 (stereo not given) | i
Cc1ccc2nc(-c3ccc(NC(=O)c4cccnc4)cc3)sc2c1 | 5%
CC(=O)C1=C(O)C(=O)N(c2ccccn2)C1c1ccccc1[N+](=O)[O-] (stereo not given) | i
Cc1ccc(NC(=S)NC2CCCC2)c(C)c1 | i
CSc1nc2ccc(NC(=O)CSc3ccccn3)cc2s1 | i
CCOC(=O)NNC(=O)Nc1ccc(C(C)=O)cc1 | i
CN(Cc1ccccc1)Cc1c(O)ccc2c1oc(=O)c1ccccc12 | 29%
O=C(COc1ccc2c(=O)c(-c3ccccc3)coc2c1)N1CCCCC1 | 2%
COc1ccc(OCC(=O)NC(=S)Nc2ccc(S(=O)(=O)Nc3nc(C)cc(C)n3)cc2)cc1 | 0%
CCNC(=S)Nc1cc(OCC)c(N2CCOCC2)cc1OCC | i
CSc1ccc(S(=O)(=O)NCc2ccccn2)cc1 | 0%
Cc1ccc(-c2cc(C(=O)Nc3ccc(S(N)(=O)=O)cc3)c3ccccc3n2)s1 | i
CCCc1cc(=O)oc2c(C)c(OC(=O)c3ccco3)ccc12 | 3%
COc1cc(/C=C/c2ccc3ccccc3n2)c(Cl)cc1OC(C)=O | 1%
CC(C)(C)c1ccccc1OCC(=O)Nc1ccccc1C(N)=O | 4%
CC(C)CC(=O)Nc1cccc(NC(=O)CC(C)C)c1 | i
O=C(NC(=O)c1ccc(Cl)cc1)Nc1ccc(Br)cn1 | i
O=C1c2ccccc2C(=O)N1CC1CCCO1 (stereo not given) | i
CCOC(=O)C1(C(=O)OCC)Oc2ccc3ccccc3c2C1O (stereo not given) | 0%
Cc1cc(C(C)(C)c2cc(C)c(NC(=O)CN3CCCC3)c(C)c2)cc(C)c1NC(=O)CN1CCCC1 | i
COc1cc(CNCCc2ccccc2)ccc1OCC(=O)Nc1ccccc1 | i
O=Cc1cccn1-c1ccc(Br)cc1 | i
Cc1c(NC(=O)CSc2ccc(Cl)cc2)cccc1-c1nc2cc(Cl)ccc2o1 | i
COc1cc(NC(=O)CSc2ccc(Cl)cc2)c(C(=O)O)cc1OC | 0%
CCCCn1c(CCC(=O)O)ccc1-c1ccc(OC)cc1 | i
FC(F)(F)c1cccc(NC(=S)NCc2cccs2)c1 | 17%
N#Cc1nc(COc2cccc(Cl)c2)oc1NCc1ccncc1 | i
COc1ccc(Cc2nnc(SCC(=O)Nc3c(F)cc(F)cc3Br)o2)cc1 | i
COc1ccc(C(=O)NCC2OCCc3ccccc32)cc1OC (stereo not given) | 1%
CC1C/C(=N/N=C2/NC(=O)CS2)CC(C)(C)C1 (stereo not given) | 33%
Cc1cccc(N(CC(=O)N2CCN(c3cccc(Cl)c3)CC2)S(C)(=O)=O)c1 | i
Cc1cc(OCC(=O)N2CCCCCC2)ccc1Cl | i
COc1ccccc1C(CC(=O)N1CCCC1)c1ccc2c(c1)OCO2 (stereo not given) | i
O=C(NCc1cccnc1)c1nn2c(c1Br)NC(c1ccccc1)CC2C(F)(F)F (stereo not given) | i
The list continues:
SMILES | Mtb growth
O=C(NC(=S)Nc1ccc(F)c(Cl)c1)C1CC1 | 3%
COc1ccc(-c2cc(C(F)(F)F)c(C#N)c(SCC(=O)N3CCc4cc(OC)c(OC)cc4C3)n2)c(OC)c1 | i
COc1ccccc1N1CCN(C(=O)Cc2ccc(C)cc2)CC1 | 0%
N#Cc1c(C(F)(F)F)cc(-c2ccccc2)nc1SCCC(=O)N1CCOCC1 | i
Cc1ccc(C(=O)Nc2ccc(N3CCN(C)CC3)cc2)cc1[N+](=O)[O-] | 0%
COc1c(F)c(F)c(C(=O)Nc2sc3c(c2C(N)=O)CCC(C)C3)c(F)c1F (stereo not given) | i
S=C(Nc1ccn(Cc2cccc3ccccc23)n1)NC1CCCC1 | i
COc1ccc(CN2CCN(C(=O)COc3cccc(C)c3)CC2)cc1 | 0%
N#CCCN(CCC#N)C(=O)c1cccc(F)c1 | i
Cc1noc(C)c1CSc1nnc2scc(-c3ccc(Cl)cc3)n12 | i
O=C(CCc1ccccc1)NCCSc1ccccc1 | 4%
CCOC(=O)c1ccc(NC(=S)NNC(=O)COC)cc1 | i
Clc1ccccc1CN1CCN(Cc2ccccn2)CC1 | i
c1ccc(CSc2nnc(-c3ccco3)c(-c3ccco3)n2)cc1 | 1%
O=C(NC(=S)Nc1ccc2c(c1)oc1ccccc12)c1ccccc1 | i

Bioassay records as filed in PubChem.

This is a subset. The share of hits here may be higher or lower than overall.
